Menin MLL FP FL: menin-MLL binding inhibition, fluorescein peptide | Fluorescence polarization, fluorescein-MLL peptide displacement from menin | FP activity change, % at 61.4 µM | 290,000 tested, under 10 active | AID 1766; inconclusive = falling polarisation curve, or a change in total fluorescence; inactive = total fluorescence flat and polarisation flat or rising; no compound was filed as active; the % refers to the polarisation; negative = inhibition;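 note: % of control where 0% means no effect; inhibitors lower the polarisation; unlabelled MLL peptide was the positive control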
Sfp PPTase inh: inhibitors of Bacillus subtilis Sfp phosphopantetheinyl transferase; Q9F4F7; Biochemical Sfp PPTase activity, qHTS; Potency, µM, for the others: max response, negative = inhibition, usual class: inhibitors; 310,000 compounds, 3.5% hits; AID 1490; active = well fitted inhibition curve with a large enough effect; inconclusive = small, poorly fitted or top-dose-only effect, or another doubt; inactive = no such curve, though single readings can be large or run the other way;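 note: the enzyme is Sfp with the accession as filed and its product quenches rhodamine fluorescence; potency is the fitted concentration of half-maximal effect; 0% = enzyme reaction without inhibitor and -100% = no enzyme wells; top concentration of the series not given in the record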
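Reaction rates are the 30-min fluorescence difference (ex 525, em 598 nm) in wells containing 15 nM Sfp, 5 uM rhodamine-CoA and 12.5 uM BHQ-2-YbbR at pH 7.6 with 10 mM MgCl2.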
PINK1 expr mod: PINK1 expression modulation | PINK1 immunofluorescence, high-content cytometry, 24 h | Potency, µM (series often up to 76.6 µM), for the others: at the highest dose activation (PINK1 increase), usual class: activators | 410,000 compounds, 0.2% hits | AID 624263; active = well fitted activation curve with a large enough effect; inconclusive = small, poorly fitted or top-dose-only effect; inactive = flat fitted curve, though single readings scatter; cell line not stated here;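 note: potency is the fitted concentration of half-maximal effect; % of control where 0% means no effect; nearly all actives have a fitted effect of over 65% in size; a mitochondrial uncoupler was the plate control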
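PINK1 protein, normally rapidly degraded, was detected by immunofluorescence after 24 hour compound treatment of a stable cell line. Titration data (5 concentrations) came from laser-scanning cytometry, with CCCP-treated wells as controls.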
TRPML1 blocker: blocks the human TRPML1 channel; Q9GZU1; TRPML1-inducible cells, Ca2+ dye fluorescence, FDSS; hits give low values; inhibition of EC80 agonist-evoked calcium signal; activity change, negative = inhibition, % (concentration not given with the values); 390,000 compounds, 0.02% hits; AID 624415; in the data active means activity change below about -50%; inconclusive means about -30% to -50%; inactive means above about -30%;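 note: stimulus is agonist 54-4 at its EC80 concentration; % is set by controls: 0 for no effect and ±100 for the full control effect; the text of the record puts the active cut at -80%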
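Tet-induced TRPML1-DL cells loaded with Ca8 no-wash calcium dye were read kinetically on FDSS. Compound addition was followed by EC80 agonist 54-4 (4 uM final); inhibition was read over 110 s.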
TRPV1 PAM: potentiators of human vanilloid receptor 1 (TRPV1); Q8NER1; TRPV1-expressing cells, Fluo-8 calcium influx, capsaicin EC20 potentiation; host cell line not named in the record; control for the full effect not named in the record; potentiation, % at 8.33 µM; 320,000 compounds, 0.02% hits; AID 540277; active means potentiation above 80%; inconclusive means 30% to 80%; inactive means below 30%; note: 0% is about no effect
Target sequence (Q8NER1 whole entry, looked up): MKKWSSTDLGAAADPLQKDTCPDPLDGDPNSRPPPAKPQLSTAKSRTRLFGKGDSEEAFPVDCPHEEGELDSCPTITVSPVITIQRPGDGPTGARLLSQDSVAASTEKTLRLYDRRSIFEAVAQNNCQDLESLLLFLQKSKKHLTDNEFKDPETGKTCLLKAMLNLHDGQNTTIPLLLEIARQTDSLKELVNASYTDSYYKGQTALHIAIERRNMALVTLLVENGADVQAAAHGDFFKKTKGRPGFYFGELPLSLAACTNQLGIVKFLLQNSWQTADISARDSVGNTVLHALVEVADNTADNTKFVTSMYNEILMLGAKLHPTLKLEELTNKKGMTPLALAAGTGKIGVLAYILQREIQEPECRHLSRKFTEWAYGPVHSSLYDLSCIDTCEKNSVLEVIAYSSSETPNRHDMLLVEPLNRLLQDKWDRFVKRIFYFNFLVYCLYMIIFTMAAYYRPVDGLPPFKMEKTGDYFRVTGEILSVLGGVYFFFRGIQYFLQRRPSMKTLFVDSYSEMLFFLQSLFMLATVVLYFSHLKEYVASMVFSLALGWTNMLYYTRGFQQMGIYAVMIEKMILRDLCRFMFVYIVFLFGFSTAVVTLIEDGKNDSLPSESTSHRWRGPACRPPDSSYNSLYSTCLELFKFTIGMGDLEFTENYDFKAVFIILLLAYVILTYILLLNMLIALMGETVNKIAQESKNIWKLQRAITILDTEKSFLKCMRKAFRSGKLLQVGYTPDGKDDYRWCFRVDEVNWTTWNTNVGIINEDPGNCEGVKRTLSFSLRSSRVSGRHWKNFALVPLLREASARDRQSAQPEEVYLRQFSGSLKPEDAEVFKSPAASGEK
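TRPV1-expressing cells were cultured overnight at 35.5C and loaded with Fluo-8 calcium dye for 40 to 90 min at room temperature. After a 10 s baseline, compound was added and calcium influx was read kinetically for 3 min (ex 480/em 520 nm).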
ClpP mod: qHTS Assay for Activators of ClpP; ATP-dependent Clp protease proteolytic subunit (Bacillus subtilis (strain 168)), P80244; purified B. subtilis ClpP, FRET peptide cleavage, 20 min; Potency, µM (top dose mostly 57.5 µM), for inactives: at the highest dose activity change, negative = active; 340,000 compounds, 1.9% hits; active = well fitted falling curve with a large enough effect; inconclusive = small, poorly fitted or top-dose-only effect; inactive = no such curve, though single readings can be large or run the other way; note: potency is the fitted concentration of half-maximal effect; the source files actives as falling curves though it sought activators and does not explain the sign; nearly all actives have a fitted effect of over 65% in size; many hits overshoot -100%
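ClpP 10 microg/mL final, pH 8 Tris/KCl buffer with BSA, glycerol, Tween-20; compound pinned in; FRET-FV substrate; RT 20 min; Ex320/Em430; ΔFRET vs ADEP 5.8 microM, DMSO, no enzyme.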
TRPML1 ag: human mucolipin-1 channel agonism. TRPML1-expressing cells, Ca2+ dye fluorescence, FDSS; host cell line not named in the record; reference of the full effect not given here. 410,000 compounds, 0.12% hits. Q9GZU1. AID 624414. activation, % (no concentration beside the values); in the data active = activation above about 50%; inconclusive = about 30% to 50%; inactive = below about 30%; note: 0% is about no effect; the text of the record puts the active cut at 80%
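Kinetic FDSS Ca2+ read in Tet-induced TRPML1-DL cells (ABD Ca8 dye plus quencher, 45-90 min RT loading): baseline, then compound, then 110 s agonist window; EC80 agonist 54-4 at 4uM final added afterwards for a 110 s antagonist window.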
* hit, by the source's call; ? = inconclusive; . = not tested or not shown; [ ] = another dose, or the depositor's remark.

Start of the listing, in advance:
SMILES	Menin MLL FP FL	Sfp PPTase inh	PINK1 expr mod	TRPML1 blocker	TRPV1 PAM	ClpP mod	TRPML1 ag
O=[N+]([O-])c1ccccc1S(=O)(=O)n1nnc2ccccc21	-0.5	?	0.6%	5	0	0.8%	-0.3
O=C(COc1ccc(S(=O)(=O)NC2CCCCC2)cc1)NCCC1=CCCCC1	1.1	-3%	3.9%	14	-4	0.5%	0.8

All compounds of this part, from the start:
SMILES	Menin MLL FP FL	Sfp PPTase inh	PINK1 expr mod	TRPML1 blocker	TRPV1 PAM	ClpP mod	TRPML1 ag
O=[N+]([O-])c1ccccc1S(=O)(=O)n1nnc2ccccc21	-0.5	?	0.6%	5	0	0.8%	-0.3
O=C(COc1ccc(S(=O)(=O)NC2CCCCC2)cc1)NCCC1=CCCCC1	1.1	-3%	3.9%	14	-4	0.5%	0.8
O=C(Cn1c(=O)nc(-c2ccccc2)c2ccccc21)NCc1ccc(F)cc1	.	.	2.8%	1	.	-1.4%	0.4
COc1ccc(N(CC(=O)N2CCN(c3ccccc3)CC2)S(=O)(=O)c2ccc(C)cc2)cc1	.	6%	6.4%	-5	4	-1.9%	-0.7
CC12CCC(=O)N1C(C(=O)Nc1cccc(S(=O)(=O)N3CCCCCC3)c1)CS2 (configuration not stated)	.	.	-0.7%	-2	10	28µM*	0.7
O=C(NCc1ccccc1)c1ccc(CS(=O)(=O)c2ccc(Br)cc2)o1	6.5	17%	0.8%	-8	4	.	0.0
COCCN(C(=O)COC(=O)c1cccs1)c1c(N)n(Cc2ccccc2)c(=O)[nH]c1=O	.	5%	-1.1%	8	4	-0.7%	0.5
COC(C(=O)Nc1ccnn1C1CCN(Cc2ccc(CO)o2)CC1)c1ccccc1 (configuration not stated)	-3.8	0%	-0.4%	-10	-5	-0.7%	0.5
Clc1ccc(/C=N/Nc2ncnc3nc[nH]c23)cc1	-4.9	-9%	3.3%	-14	-6	.	1.4
O=C(O)c1nc(N2CCCCC2)ncc1Cl	6.2	17%	0.7%	4	-7	-2.2%	0.2
Clc1ccc(CNc2ccc(CNc3ncn[nH]3)cc2)cc1	.	6%	0.1%	14	5	1.1%	-1.8
COc1ccc(NC(=O)N(C)C[C@H]2Oc3ccc(NS(=O)(=O)c4c(C)noc4C)cc3C(=O)N([C@H](C)CO)C[C@@H]2C)cc1	.	.	-0.1%	5	.	-6.1%	0.2

Only Sfp PPTase inh and PINK1 expr mod, for some of the entries so far:
| Compound | Sfp PPTase inh | PINK1 expr mod |
| --- | --- | --- |
| COc1ccc(N(CC(=O)N2CCN(c3ccccc3)CC2)S(=O)(=O)c2ccc(C)cc2)cc1 | 6% | 6.4% |
| CC12CCC(=O)N1C(C(=O)Nc1cccc(S(=O)(=O)N3CCCCCC3)c1)CS2 (configuration not stated) | . | -0.7% |
| O=C(NCc1ccccc1)c1ccc(CS(=O)(=O)c2ccc(Br)cc2)o1 | 17% | 0.8% |
| COCCN(C(=O)COC(=O)c1cccs1)c1c(N)n(Cc2ccccc2)c(=O)[nH]c1=O | 5% | -1.1% |
| COC(C(=O)Nc1ccnn1C1CCN(Cc2ccc(CO)o2)CC1)c1ccccc1 (configuration not stated) | 0% | -0.4% |

In a second layout: results already given
Compound | Menin MLL FP FL | Sfp PPTase inh | PINK1 expr mod | TRPML1 blocker | TRPV1 PAM | ClpP mod | TRPML1 ag
COC(C(=O)Nc1ccnn1C1CCN(Cc2ccc(CO)o2)CC1)c1ccccc1 (configuration not stated) | -3.8 | 0% | -0.4% | -10 | -5 | -0.7% | 0.5
Clc1ccc(/C=N/Nc2ncnc3nc[nH]c23)cc1 | -4.9 | -9% | 3.3% | -14 | -6 | . | 1.4

Later entries.
SMILES	Menin MLL FP FL	Sfp PPTase inh	PINK1 expr mod	TRPML1 blocker	TRPV1 PAM	ClpP mod	TRPML1 ag
COc1ccc(C(=O)Cn2c(C)nc([N+](=O)[O-])c2Br)cc1	6.3	18%	1.4%	4	-7	-1.6%	-0.2
O=C1c2ccccc2C(=O)N1Cc1ccccc1F	-0.3	5%	-0.7%	4	-12	.	-0.4
C#CCOCCOCCOCCNc1nc(N2CCN(C(=O)[C@H](CCCCN)n3cc([C@@H](N)CC(C)C)nn3)CC2)nc(N2CCN(C(=O)[C@H](CCCCN)n3cc([C@@H](N)CC(C)C)nn3)CC2)n1	-0.3	6%	4.5%	-1	-7	1.1%	-0.2
COc1ccc(OC)c(NC(=O)Cc2c(C(=O)O)[nH]c3ccc(Cl)cc23)c1	.	.	1.6%	3	.	-1.7%	-0.5
CCC(Oc1ccccc1)C(=O)N1CC(C)CC(C)C1 (configuration not stated)	-1.1	13%	-2.6%	41	-19	1.3%	2.4
CCOC(=O)C1(Cc2cccc(Cl)c2)CCCN(C(=O)c2cccnc2)C1 (configuration not stated)	3.8	-3%	-1.2%	-11	5	.	-0.1
CCC(=O)Nc1ccc(S(=O)(=O)Nc2ccc(Cl)nn2)cc1	0.7	1%	-1.5%	6	8	0.4%	1.3
Cc1cc(NC(=O)CSc2cn(CC(=O)N(C(C)C)C(C)C)c3ccccc23)no1	3.0	11%	1.1%	-4	2	1.7%	2.4
Cc1cccc(NC(=S)NCc2ccc(F)cc2)c1C	-10	19%	-0.2%	-11	-26	-2.2%	1.9
COc1ccc(NC(=O)c2cc3c(=O)n4ccccc4nc3n2C)cc1OC	-3.2	15%	1.3%	-7	-10	.	-0.6
O=C(Nc1cc(Cl)ccc1Cl)c1cc(-c2ccco2)on1	16	2%	10.0%	7	1	.	1.2
C=CCOCC(O)Cn1c(N2CCCC2)nc2c1c(=O)[nH]c(=O)n2C (configuration not stated)	1.2	9%	-0.6%	7	-1	-3.1%	0.6
Cn1ncc(N2CCN(C(=O)c3ccc(Cl)cc3)CC2)c(Cl)c1=O	-0.5	17%	-0.3%	7	3	.	-0.8
O=C(Nc1cccc(F)c1)c1ccc(-c2ccccc2Cl)o1	8.6	1%	?	32	0	-10%	-0.2
CCN(C[C@H]1N[C@@](Cc2ccccc2)(C(=O)OC)[C@H]2C(=O)N(Cc3ccccc3)C(=O)[C@@H]12)C(C)=O	.	.	1.7%	13	.	-4.6%	-0.2
N=C1C(c2nc(-c3ccc(F)cc3)cs2)=C(O)CN1Cc1ccc(Cl)cc1	-0.4	19%	17%[38.3 µM]	12	5	0.3%	-0.6
O=C(CC1Sc2ccccc2NC1=O)NNc1cc(Cl)ccc1Cl (configuration not stated)	.	.	20%	7	.	.	-1.1
Cc1ccc(NC(=O)COC(=O)c2ccccc2OCC(=O)N(C)C)cc1	.	.	-0.6%	.	.	-7.4%	-0.8
COC(=O)c1ccc(Cn2nc(C)c(Cl)c2C)o1	-0.8	0%	1.1%	-8	-3	5.1%	0.6
CCOc1ccc(NC(=O)CN(C)C(=O)c2ccc(COc3ccccc3)cc2)cc1OCC	.	.	2.3%	-28	15	-1.8%	2.7
Cc1cccc(NC(=O)CCC(=O)OCC(=O)c2ccc(Oc3ccc([N+](=O)[O-])cc3)cc2)c1	1.5	-7%	2.3%	14	-1	.	2.5
COc1ccc(Cn2c(SCC(=O)NCc3ccco3)nc3ccsc3c2=O)cc1	-3.5	6%	14%[38.3 µM]	-3	-10	0.8%	2.3
COc1ccc(C(CNC(=O)COc2cc(C)cc(C)c2)N2CCOCC2)cc1 (configuration not stated)	.	.	0.3%	-6	.	-2.3%	-0.3

Single records, from the list above. Values in the order: Menin MLL FP FL	Sfp PPTase inh	PINK1 expr mod	TRPML1 blocker	TRPV1 PAM	ClpP mod	TRPML1 ag
Cc1cccc(NC(=O)CCC(=O)OCC(=O)c2ccc(Oc3ccc([N+](=O)[O-])cc3)cc2)c1 in the list: 1.5	-7%	2.3%	14	-1	.	2.5
O=C(Nc1cccc(F)c1)c1ccc(-c2ccccc2Cl)o1 in the list: 8.6	1%	?	32	0	-10%	-0.2
